Mtb H37Rv: Mycobacterium tuberculosis H37Rv growth inhibition, cell based, confirmatory dose response (AID 1949). most inactive calls were filed without a number and no value below 0 was filed. one-dose inhibition, % at 10 µg/mL; IC50 in µg/mL for titrated hits. 1.6% of 100,000 active;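 active = confirmed in a dose series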;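 note: bacteria grown 7 days with compound before Alamar blue readout; 0% = untreated bacteria and 100% = reference antibiotic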
The depositor's hits bear a star; i = inactive.

compound | Mtb H37Rv
COc1ccc(OCCCC(=O)Nc2ccc(Cl)c(Cl)c2)cc1 | 9%
CC(C)C(=O)Nc1ccc2oc(-c3cccc(Br)c3)nc2c1 | i
CS(=O)(=O)N1CCN(C(=O)c2ccc(Br)s2)CC1 | i
CNC(=S)Nc1ccc(Br)cc1F | i
Cc1cc(=O)cc(C)n1-c1ccc(-n2c(C)cc(=O)cc2C)cc1 | i
CCOc1ccc(S(=O)(=O)NC2CC2)cc1 | i
CCOC(=O)c1c(NC(=O)Cn2cnc3scc(-c4ccccc4)c3c2=O)sc2c1CCCC2 | i
O=C(NCCC1=CCCCC1)C1CCN(C(=O)c2ccc(Br)cc2)CC1 | i
CC(Oc1ccccc1F)C(=O)Nc1ccc(S(=O)(=O)N2CCC(Cc3ccccc3)CC2)cc1 (stereo not given) | i
Cc1ccc(C)c(-n2c(-c3ccccc3)n[nH]c2=S)c1 | 1%
CC1=CC(C)(C)N2C(=O)C(=O)c3cccc1c32 | i
COc1ccc(C(=O)n2cnnc2N)cc1 | 5%
O=C(c1sc2cc(Cl)ccc2c1Cl)N1CCN(c2ccc(F)cc2)CC1 | i
Cc1nnc2n(CCc3ccccc3)c(=O)c3c4c(sc3n12)CCCC4 | 1%
CCOC(=O)c1c(NC(=O)COc2ccc(Cl)cc2Cl)sc(C(=O)N2CCCCC2)c1C | i
CSc1cccc(NC(=O)CN(C)S(=O)(=O)c2ccccc2)c1 | i
CCC(C)NC(=O)c1ccccc1NC(=O)CN(c1ccc(C)cc1)S(=O)(=O)c1ccc(OC)c(OC)c1 (stereo not given) | i
O=C(N(c1ccccc1)c1ccccc1)n1cnc2ccccc21 | 2%
CN(Cc1n[nH]c(=S)n1C)S(=O)(=O)c1ccccc1 | i
CCOc1ccc(C(=O)Nc2ccc(NC(=O)C(C)C)c(OC)c2)cc1[N+](=O)[O-] | i
O=C(NCCc1ccc(F)cc1)Nc1ccccc1Cl | i
CCc1ccc(-n2c(C)nnc2SCC(=O)Nc2ccc(F)c(Cl)c2)cc1 | i
N#Cc1c(NC(=O)C2CC(=O)OC23CCCCC3)sc2c1CCCCC2 (stereo not given) | 14%
COCCn1c(Cc2ccccc2)nnc1SCC(=O)NCc1ccccc1 | i
CCOc1ccc(S(=O)(=O)NC2CCCC2)cc1 | i
COc1cc(-c2nc(S(=O)(=O)c3ccccc3)c(N3CCOCC3)o2)cc(OC)c1OC | 1%
O=C(CN1C(=O)c2ccccc2S1(=O)=O)Nc1ccccc1Br | i
CSc1nc(C)cc(SCCOc2ccc(Cl)cc2Cl)n1 | 1%
COc1ccc(C2C(C#N)=C(N)OC3=C2C(=O)CCC3)cc1Cn1nc(C)c([N+](=O)[O-])c1C (stereo not given) | i
CCOC(=O)c1c(C)n(Cc2ccco2)c2ccc(O)cc12 | i
Cc1cc(NC(=O)Cc2c(F)cccc2Cl)no1 | i
CCCS(=O)(=O)N1CCN(Cc2cc(OC)ccc2OC)CC1 | 2%
Nc1nnc(SCC(=O)NC2CCCCC2)s1 | i
COc1ccccc1CNc1cc(C)ccc1C | i
Cn1nc(C(=O)Nc2cccc(C(F)(F)F)c2)c2ccccc2c1=O | 26%
N#Cc1ccc(Oc2ccc([N+](=O)[O-])cc2)cc1 | i
O=C(O)CSc1nnc(C2COc3ccccc3O2)n1-c1ccccc1 (stereo not given) | i
CCOCCCNC(=O)Cc1cccc2ccccc12 | i
Cc1cc(CSc2ccccc2)ccc1NC(=O)CSc1ccc(Cl)cc1 | i
Cc1ccccc1CSCCNC(=O)c1ccc(C(C)(C)C)cc1 | i
O=C(O)CSc1c(-c2ccccc2)c2cc(Cl)ccc2[nH]c1=O | i
CCc1nnc(NC(=O)CSc2nc3ccc(OC)cc3[nH]2)s1 | i
COc1cccc(NC(=O)CSc2nnc(-c3ccccc3)n2-c2ccc(F)cc2)c1 | i
Fc1ccc(CN2CCN(Cc3ccncc3)CC2)cc1 | 1%
O=C(O)c1cccc(NC(=O)c2csc3ccccc23)c1 | i
C=CCNCCCCOc1c(C)cccc1C(C)(C)C | 5%
COc1ccc(NC(=O)CSc2nnc(C(C)C)n2N)cc1 | i
CC1CCN(c2ccc(NC(=O)CSc3ccc(Cl)cc3)cc2)CC1 | 1%
COc1ccc(CSc2nnc(SCc3ccc(Cl)c(Cl)c3)s2)cc1 | 7%
COc1ccccc1OC(C)C(=O)Nc1cc(C)ccc1C (stereo not given) | i
Cc1ccc(S(=O)(=O)Nc2ccc(Cl)cc2F)cc1 | i
COC(=O)c1ccc2c(=O)n(NC(C)=O)c(=S)[nH]c2c1 | i
CCc1nnc(NC(=O)CN2CCCCC2)s1 | i
CCCCNS(=O)(=O)c1ccc2c(c1)OCCO2 | i
CCCCc1nc(SCC(=O)Nc2c(C)cccc2C)n[nH]1 | i
CCc1nnc(NC(=O)C(C)(C)Oc2ccc(Cl)cc2)s1 | 0%
Cc1cc(C(F)(F)F)n2nc(C(=O)N3CCOCC3)cc2n1 | 3%
COCCCN1C(=O)c2ccc(C(=O)Oc3ccc(Cl)cc3Cl)cc2C1=O | i
CC(=O)Nc1ccc(S(=O)(=O)Nc2ccc(S(=O)(=O)NC(C)(C)C)cc2)cc1 | i
Cc1ccc(NC(=O)COc2ccc3c(-c4ccccc4)cc(=O)oc3c2C)c(C)c1 | i

Additional entries:
compound | Mtb H37Rv
O=C(Nc1cccc2cccnc12)c1ccc([N+](=O)[O-])o1 | 8.9µg/mL*
O=C(COc1ccccc1)NC(=S)Nc1cccc(NC(=O)c2ccccc2Cl)c1 | i
O=C1COc2ccc(S(=O)(=O)NCCOc3ccccc3)cc2N1 | i
CC(=O)N(Cc1ccco1)CC1CCOC(C)(C)C1 (stereo not given) | i
O=c1nc(/C=C/c2ccc(-c3cc(Cl)cc(Cl)c3)o2)cc(C(F)(F)F)[nH]1 | i
NC(=O)C1CCN(C(=O)C(Cc2ccccc2)N2C(=O)c3ccccc3C2=O)CC1 (stereo not given) | i
O=S(=O)(Nc1ncccn1)c1ccc(F)cc1 | 8%
O=C1CC(NCCC2=CCCCC2)C(=O)N1c1ccc(F)cc1 (stereo not given) | i
CC1(C)CC(NSc2ccccc2[N+](=O)[O-])CC(C)(C)N1 | 1%
CCC(=O)Nc1c(-c2ccccc2)c2cc(Br)ccc2[nH]c1=O | i
Cn1ccnc1Sc1ccc([N+](=O)[O-])cc1C(=O)c1ccc(Br)cc1 | i
Fc1ccc(-c2nnc3sc(-c4ccncc4)nn23)cc1 | i
O=C(NCc1ccc(F)cc1)C1CC(=O)N(c2ccc(Cl)cc2)C1 (stereo not given) | i
COC(=O)Nc1ccc(S(=O)(=O)Nc2ncccn2)cc1 | i
Cc1ccc(C2OC3=C(C(=O)CC(C)(C)C3)C(N)=C2C#N)o1 (stereo not given) | 0%
Cc1nn2c(CNc3ccccc3)nnc2c2ccccc12 | i
CC(C)c1nnc(NC(=O)CCCOc2ccccc2)s1 | i
Cc1cccc(C(=O)N2CCN(c3ccc([N+](=O)[O-])c(-n4nc(-c5ccccc5)c5ccccc5c4=O)c3)CC2)c1 | i
COc1ccc(NC(=O)c2ccc(-c3cccc(Cl)c3Cl)o2)c(OC)c1 | i
CCc1ccc(-n2c(SCC(=O)Nc3ccc(F)cc3)nnc2-c2ccncc2)cc1 | i
C=CCn1c(NC(=O)c2ccco2)nc2ccccc21 | 19%
O=C(O)CCc1ccc(-c2ccc(Cl)cc2)n1-c1ccc(C(=O)O)cc1 | i
CC(C)(C)c1ccc(CCC(CC(=O)O)CC(=O)O)cc1 | 5%
COc1ccc(Nc2nc(N3CCN(C)CC3)nc3ccccc23)c(OC)c1 | i
C=CCn1c(SCC(=O)N2CCc3ccccc32)nnc1-c1ccccc1O | i
OC1CN=C2CCCc3c2n(c2ccc(Cl)cc32)C1 (stereo not given) | 3%
O=C(O)C1C2CCC(O2)C1C(=O)N1CCN(c2ccc(F)cc2)CC1 (stereo not given) | i
CN(C)CCNCCOCCOc1ccccc1C#N | i
CC(C)(C)c1nc(CN2CCCCC2)cc(CN2CCCCC2)c1O | i
COC(=O)c1ccc(C(=O)OC)c(NC2=NS(=O)(=O)c3ccccc32)c1 | 2%

3 entries already listed, sorted by heavy-atom count, largest number first:
compound | Mtb H37Rv
NC(=O)C1CCN(C(=O)C(Cc2ccccc2)N2C(=O)c3ccccc3C2=O)CC1 (stereo not given) | i
CC(C)(C)c1nc(CN2CCCCC2)cc(CN2CCCCC2)c1O | i
CCC(=O)Nc1c(-c2ccccc2)c2cc(Br)ccc2[nH]c1=O | i

(list continues)
compound | Mtb H37Rv
Brc1ccccc1CN1CCN(c2ccccn2)CC1 | 5%
COc1cccc(C(=O)OC2CCN(C)CC2)c1 | i
CCc1cccc(NC(=O)c2cccc3ccccc23)c1 | i
CC(c1ccccc1)C1CC(=O)N(c2ccc(Br)cc2)C1=O (stereo not given) | 0%
CC1CN(C)CCC1(O)c1ccccc1 (stereo not given) | i
S=C(Nc1ccccc1)N(CCN1CCOCC1)Cc1cccc(Cl)c1 | 7%
N#Cc1cn(CC(=O)NCc2ccc3c(c2)OCO3)c2ccccc12 | i
CCOc1cc(CNc2ccc(C)cc2)ccc1OCC(=O)Nc1ccc(C)c(Cl)c1 | 24%
CCOC(=O)c1c(NC(=O)c2ccc(-c3ccccc3[N+](=O)[O-])o2)sc2c1CCCC2 | i
Cc1ccc(S(=O)(=O)Nc2ccc(-c3cn4ccc(C)cc4n3)cc2)cc1 | 10%
O=C(CSc1nc2c(c(C(F)(F)F)n1)CCc1ccccc1-2)NCCCn1ccnc1 | i
O=C1C(Cl)=C(Nc2ccc(F)cc2)C(=O)N1Cc1ccccc1 | i
CN1CCc2sc3nc(C(=O)Nc4ccc(F)cc4)c(N)cc3c2C1 | i
O=C(Nc1ccccc1F)c1ccc2nc(-c3ccco3)c(-c3ccco3)nc2c1 | i
CSc1ccccc1C(=O)NCc1ccccc1C | i
COc1ccccc1N1C(=O)CC(N2CCC(C(N)=O)(N3CCCCC3)CC2)C1=O (stereo not given) | i
O=C(CSc1nnc(-c2ccc([N+](=O)[O-])cc2)n1Cc1ccccc1)N1CCN(c2ccccc2)CC1 | i
CC(=O)c1cccc(NC(=O)CSC2=NCCS2)c1 | i
O=C(Nc1cccc(-c2cnc3ccccc3n2)c1)c1cc2ccccc2oc1=O | 2%
COc1cc(C2CC(=O)NC(SCC(=O)NCc3ccccc3)=C2C#N)cc(Br)c1O (stereo not given) | i
CCOc1ccc2c(C)c(CC(=O)O)c(=O)oc2c1 | i
Cc1ccc(NC(=O)c2c(-c3ccccc3Cl)noc2C)c(Br)c1 | i
Cc1cccc(C(=O)Nc2nnc(SCc3cccc(Br)c3)s2)c1 | i
CC(C)N(Cc1ccccc1)S(=O)(=O)Cc1ccc(Cl)cc1 | 6%
Cc1ccc(C(=O)Nc2ccccc2)cc1S(=O)(=O)Nc1cccc([N+](=O)[O-])c1 | i
CCOc1ccc(NS(=O)(=O)c2ccc(C)c([N+](=O)[O-])c2)cc1 | i
CS(=O)(=O)N(CC(=O)Nc1ccc2c(c1)OCO2)C1CCCCC1 | i
N#Cc1ccc(-c2ccc(OCC(N)=O)cc2)cc1 | <0.1µg/mL*
O=C(COc1ccc(Cl)cc1Cl)N1CCOCC1 | i
Cc1ccc(N(CC(=O)Nc2ccccc2C(N)=O)S(=O)(=O)c2ccccc2)cc1C | i

An excerpt of these results, as labelled records.
CSc1ccccc1C(=O)NCc1ccccc1C
  Mtb H37Rv: i
COc1ccccc1N1C(=O)CC(N2CCC(C(N)=O)(N3CCCCC3)CC2)C1=O (stereo not given)
  Mtb H37Rv: i
O=C(CSc1nnc(-c2ccc([N+](=O)[O-])cc2)n1Cc1ccccc1)N1CCN(c2ccccc2)CC1
  Mtb H37Rv: i
CC(=O)c1cccc(NC(=O)CSC2=NCCS2)c1
  Mtb H37Rv: i

(listing goes on)
compound | Mtb H37Rv
O=[N+]([O-])c1ccc(N2CCOCC2)cc1N1CCN(c2ccccc2)CC1 | i
COc1cc(S(=O)(=O)N2CCN(C(=O)c3ccccc3)CC2)c(OC)cc1Br | i
COc1ccc(N2CCN(C(=O)c3ccc(I)cc3)CC2)cc1 | i
COc1ccc(OCc2nnc3n2N=C(c2ccc(OC)c(OC)c2)C(c2ccccc2)S3)cc1 (stereo not given) | 5%
Cn1nc(-c2ccc(N3CCCC3)c([N+](=O)[O-])c2)c2ccccc2c1=O | i
O=C(CN(c1ccc(F)cc1)S(=O)(=O)c1ccc2c(c1)OCCO2)N1CCN(c2ccccc2)CC1 | 0%
O=C(COc1ccc(C(=S)N2CCCC2)cc1)Nc1ccc(F)cc1 | i
Cc1ccccc1NC(=S)N1CCCC1 | 1%
O=C(COc1ccc(-c2ccccc2)cc1)Nc1ccc(F)cc1 | 45%
CC1(C(=O)O)C2C=CC3(CN(Cc4ccccc4)C(=O)C31)O2 (stereo not given) | i
O=C(O)c1sc2cc(Br)ccc2c1Cl | i
O=C(CN(C1CCCCC1)S(=O)(=O)c1ccccc1)NCc1ccco1 | i
CC(=O)c1c(O)c2cc(C)ccc2oc1=O | i
O=C(NC1CCCCC1)c1ccc(COCC(F)(F)F)o1 | i
O=C(Oc1ccc(Cl)c2cccnc12)c1cccc(Br)c1 | 11µg/mL*
CCN(CC)C(=O)Cn1c(=O)n(-c2ccccc2)c(=O)n1CC(=O)N(CC)CC | i
CC(C)c1cccc(C(C)C)c1OCCOCCN1CCNCC1 | 1%
Cc1ccccc1N1C(=O)CC(Sc2ncccc2C(=O)O)C1=O (stereo not given) | 0%
CCC(=O)Nc1ccc(Cl)c(NC(=S)NC(=O)c2ccc3ccccc3c2)c1 | i
CCc1cccc(CC)c1NC(=O)CSc1nnc(-c2cccnc2)n1-c1ccccc1 | i
CCOc1cc(C(C#N)N2CCOCC2)ccc1OC (stereo not given) | i
CC(C)c1ccc(OCC(N)=O)c(Br)c1 | i

An excerpt; the hit share may differ from the screen's.
